# GALR2 ag – activates the human galanin receptor 2; GALR2-expressing cells, agonist activation read-out; activation, %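 (tested at 5 µM)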; 140,000 compounds, 0.48% hits;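 active means above mean plus 3 SD of all compounds, about 5% in these data, not always enough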;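 further: 0% = vehicle buffer wells and 100% = reference agonist at full effect; tested in CHO reporter cells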
# RGS16-Gao – modulates binding between human RGS16 and Galphao; 220,000 compounds, 0.38% hits; AID 1441; binding response (% of control), % at 10 µM; bead-based flow cytometry RGS16-Galphao binding, fluorescence; actives lie on both sides;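 active means below 25% or above 175%, edge rows of some plates excepted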;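 further: Galphao activated by GDP with aluminum fluoride before binding; 100% = wells without compound and 0% = beads without RGS; some results beyond the cut were filed as inactive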
# INS promoter inh – TRM-6 insulin promoter activity inhibition | inhibition, % at 2 µM | AID 1273 | TRM-6 cells (human fetal islet line), insulin promoter-eGFP reporter, imaging; reporter expression induced with tamoxifen | 130,000 compounds, 0.9% hits;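 active means inhibition above the mean plus 3 SD, with well images judged a real hit on visual review, cut at about 60% in these data, passing the limit was not always enough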
# PKD1 inh – blocks activity of human protein kinase D1 | 200,000 compounds, 0.056% hits | Q15139 | inhibition, %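 (about 10 µM by stock and volumes)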 | PKD1 kinase fluorescence polarization assay;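 active means inhibition of 50% or more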;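 further: controls were vehicle for no effect and a reference inhibitor for full effect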
# Target sequence (Q15139 whole entry, looked up): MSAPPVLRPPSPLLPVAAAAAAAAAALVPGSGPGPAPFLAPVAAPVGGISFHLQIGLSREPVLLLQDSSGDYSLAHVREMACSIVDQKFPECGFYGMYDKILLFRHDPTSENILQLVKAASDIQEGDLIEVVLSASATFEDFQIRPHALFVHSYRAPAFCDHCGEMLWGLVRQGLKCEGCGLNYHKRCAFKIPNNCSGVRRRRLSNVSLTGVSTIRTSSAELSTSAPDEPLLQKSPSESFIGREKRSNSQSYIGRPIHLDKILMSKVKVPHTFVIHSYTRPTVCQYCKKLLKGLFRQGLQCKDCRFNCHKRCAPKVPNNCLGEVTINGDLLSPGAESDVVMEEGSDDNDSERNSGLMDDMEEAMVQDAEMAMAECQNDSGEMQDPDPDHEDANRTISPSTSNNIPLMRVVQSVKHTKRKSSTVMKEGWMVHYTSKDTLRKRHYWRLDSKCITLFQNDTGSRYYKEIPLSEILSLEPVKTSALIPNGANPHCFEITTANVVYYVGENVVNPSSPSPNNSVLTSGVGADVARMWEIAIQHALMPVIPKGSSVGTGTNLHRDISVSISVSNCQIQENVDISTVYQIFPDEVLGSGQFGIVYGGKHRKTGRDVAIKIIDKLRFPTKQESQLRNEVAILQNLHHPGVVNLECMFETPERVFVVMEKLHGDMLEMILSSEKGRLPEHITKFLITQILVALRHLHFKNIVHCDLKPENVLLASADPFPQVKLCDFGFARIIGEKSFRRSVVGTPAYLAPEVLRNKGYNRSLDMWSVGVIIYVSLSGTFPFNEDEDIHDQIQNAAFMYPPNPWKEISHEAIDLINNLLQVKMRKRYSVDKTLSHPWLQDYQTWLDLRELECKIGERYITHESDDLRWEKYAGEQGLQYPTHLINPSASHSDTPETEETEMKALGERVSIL
# HSV augment – increases HSV replication in cells; HSV replication augmentation in cells, fold increase; 220,000 compounds, 0.005% hits; AID 1956; maximum fold increase;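 active means peak rise of 1.5-fold or more in the series; tested in PC3 cells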;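 further: first round at 10 µM; read as green reporter fluorescence; hits show the peak of a series up to 25 µM; 1 = signal of infected wells without compound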
# INS promoter inh cell count – further read-out of INS promoter inh, marked with its call; normalized cell count, %; measured here: cell count, toxicity; reference of the scale not given here;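 cells exposed to compound for 48 h; stained nuclei by imaging scaled within each plate; lower means fewer cells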
# HSV augment primary fold – further read-out of HSV augment, marked with its call; fold increase; compound at 10 µM; measured here: primary screen fold increase 10 uM; tested in PC3 cells;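 GFP signal in the first replicate; 1 = infected wells without compound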
# Starred values were filed as active, the others as inactive; i = inactive; . = not tested or not shown. Compounds as they come (roughly 1.3% active in at least one column).
# Start of the data: the first three entries as a preview:
Molecule | GALR2 ag | RGS16-Gao | INS promoter inh | INS promoter inh cell count | PKD1 inh | HSV augment | HSV augment primary fold
Cc1cccc(C)c1NC(=O)CSc1nnc(-c2ccncc2)n1Cc1ccco1 | 0.0 | 105 | 14 | 58 | -3 | i | 0.98
CC1CCCC(NC(=O)CNC(=S)N(Cc2ccccc2)Cc2cccs2)C1C (centres undefined) | . | 100 | -15 | 99 | -1 | i | 0.94
O=C(CO/N=C/c1ccccc1OC(F)F)NCc1ccco1 | . | 102 | . | . | . | i | 0.99

# Results, from the start:
Molecule | GALR2 ag | RGS16-Gao | INS promoter inh | INS promoter inh cell count | PKD1 inh | HSV augment | HSV augment primary fold
Cc1cccc(C)c1NC(=O)CSc1nnc(-c2ccncc2)n1Cc1ccco1 | 0.0 | 105 | 14 | 58 | -3 | i | 0.98
CC1CCCC(NC(=O)CNC(=S)N(Cc2ccccc2)Cc2cccs2)C1C (centres undefined) | . | 100 | -15 | 99 | -1 | i | 0.94
O=C(CO/N=C/c1ccccc1OC(F)F)NCc1ccco1 | . | 102 | . | . | . | i | 0.99
COC(Cn1c(-c2cccc(S(=O)(=O)N(C)C)c2)n[nH]c1=S)OC | . | 96 | . | . | -2 | i | 0.93
O=C(NN1C(=O)C2CC=C(Cl)CC2C1=O)c1ccncc1 (centres undefined) | . | 108 | . | . | 0 | i | 0.94
CCOC(=O)c1c(NC(=O)N/N=C/c2ccccc2OCC)sc(C(C)=O)c1C | -0.9 | 27 | 60 | 73 | 6 | i | 0.98
Cc1cc(NC(=O)c2cc(CC(C)C)on2)no1 | -1.1 | 100 | 40 | 158 | -1 | i | 0.8
C/C(N)=C(/C#N)C(=O)COC(=O)C1Cc2ccccc2CN1S(C)(=O)=O (centres undefined) | -2.0 | 55 | . | . | -7 | i | 1
O=C(O)CNS(=O)(=O)c1cc(Cl)c(Cl)cc1Cl | -1.7 | 162 | 0 | 136 | 1 | i | 1
COc1ccc(OC)c(-n2c(-c3ccn[nH]3)n[nH]c2=S)c1 | . | 102 | . | . | . | i | 1
CCCS(=O)(=O)N1CCC(C(=O)N2CCN(Cc3ccccc3)CC2)CC1 | -0.8 | 102 | . | . | -4 | i | 1
COc1ccc(-n2cnnc2SCC(=O)Nc2cccc(S(=O)(=O)N3CCCCC3)c2)cc1 | -0.9 | 104 | -233 | 1 | -3 | i | 0.93
CCOC(=O)/C(=C\Nc1ccccc1C(F)(F)F)Sc1ncc(C(F)(F)F)cc1Cl | 10 | 100 | . | . | -3 | i | 0.98
COc1ccc2c(C)cc(SC3CCOC3=O)nc2c1 (centres undefined) | . | -22 | . | . | -1 | i | 0.89
CS(=O)(=O)c1ccc2nc(NC(=O)C3=NN(c4ccccc4)C(=O)CC3)sc2c1 | . | 118 | . | . | . | i | 0.97
COCCn1c(SCc2cc(C(C)=O)ccc2OC)nc2cc(Cl)ccc2c1=O | -0.3 | 87 | 17 | 99 | -9 | i | 0.86
CC(=O)N1CCc2cc(S(=O)(=O)N3CCc4ccccc4C3)ccc21 | -1.6 | 100 | 10 | 69 | -2 | i | 1
CCN1CCN(CCCNC(=O)c2ccc3c(c2)NC(=O)c2ccccc2S3)CC1 | -1.1 | 96 | . | . | -5 | i | 0.8
COc1ccc(OC)c(NC(=O)c2ccccc2NC(=O)c2ccco2)c1 | . | 86 | . | . | . | i | 0.91
CSCCC(C(=O)Nc1ccc2c(c1)OCO2)N1C(=O)c2ccccc2C1=O (centres undefined) | -1.9 | 100 | 49 | 70 | 12 | i | 1
Clc1ccccc1OCc1nn2c(-c3ccncc3)nnc2s1 | -1.2 | 103 | -438 | 49 | -8 | i | 0.79
CC(C)(C)c1ccc(C(=O)Oc2ccc3c(c2)OCC3=O)cc1 | -2.8 | 102 | -329 | 68 | 0 | i | 1
COc1ccc(NC(=O)C(=O)NCCCn2ccnc2)cc1 | . | 105 | . | . | -1 | i | 1
CCOC(=O)/C(N)=C/c1ncc(C(F)(F)F)cc1Cl | -1.9 | 92 | -47 | 110 | 10 | i | 0.99
Cc1cccc(-n2ncc3c(N(C)C4CCCCC4)ncnc32)c1 | . | 110 | . | . | . | i | 0.82
CCCCC(=O)Nc1ccc(C(=O)NNC(=O)CCCOc2ccc(Cl)cc2Cl)cc1 | 1.5 | 101 | . | . | -8 | i | 0.87
COc1ccc(C2NC(=O)N(C)C3=C2C(=O)CC(C)(C)C3)cc1OC (centres undefined) | 1.3 | 94 | 16 | 108 | 7 | i | 1.1
CCOCCCNS(=O)(=O)c1ccc2c(c1)CCN2C(C)=O | -0.1 | 100 | -17 | 129 | -10 | i | 1
O=C(NC(=S)Nc1ccccn1)c1ccccc1 | . | 96 | . | . | . | i | 1.1
Cn1cccc1/C=C1\SC(=S)N(NC(=O)c2cccc(Cl)c2)C1=O | -0.4 | 103 | -12 | 173 | -10 | i | 0.99

# A different layout for some results above.
molecule: CC(=O)N1CCc2cc(S(=O)(=O)N3CCc4ccccc4C3)ccc21
  GALR2 ag: -1.6
  RGS16-Gao: 100
  INS promoter inh: 10
  INS promoter inh cell count: 69
  PKD1 inh: -2
  HSV augment: i
  HSV augment primary fold: 1

molecule: CCCS(=O)(=O)N1CCC(C(=O)N2CCN(Cc3ccccc3)CC2)CC1
  GALR2 ag: -0.8
  RGS16-Gao: 102
  INS promoter inh: .
  INS promoter inh cell count: .
  PKD1 inh: -4
  HSV augment: i
  HSV augment primary fold: 1

molecule: CCOC(=O)c1c(NC(=O)N/N=C/c2ccccc2OCC)sc(C(C)=O)c1C
  GALR2 ag: -0.9
  RGS16-Gao: 27
  INS promoter inh: 60
  INS promoter inh cell count: 73
  PKD1 inh: 6
  HSV augment: i
  HSV augment primary fold: 0.98

molecule: COCCn1c(SCc2cc(C(C)=O)ccc2OC)nc2cc(Cl)ccc2c1=O
  GALR2 ag: -0.3
  RGS16-Gao: 87
  INS promoter inh: 17
  INS promoter inh cell count: 99
  PKD1 inh: -9
  HSV augment: i
  HSV augment primary fold: 0.86

# The main list resumes, repeating the two entries before the break.
Molecule | GALR2 ag | RGS16-Gao | INS promoter inh | INS promoter inh cell count | PKD1 inh | HSV augment | HSV augment primary fold
O=C(NC(=S)Nc1ccccn1)c1ccccc1 | . | 96 | . | . | . | i | 1.1
Cn1cccc1/C=C1\SC(=S)N(NC(=O)c2cccc(Cl)c2)C1=O | -0.4 | 103 | -12 | 173 | -10 | i | 0.99
Cc1ccc(S(C)(=O)=N/C=C2\C(=O)c3sccc3N(C)S2(=O)=O)cc1 (centres undefined) | . | 104 | . | . | . | i | 0.94
Nc1nonc1-c1nc2ccccc2n1CC(=O)O | -3.0 | 110 | 29 | 66 | 6 | i | 0.64
O=C(Cc1ccccc1F)NCC(c1ccco1)N1CCCCC1 (centres undefined) | . | 101 | 17 | 148 | 4 | i | 0.87
C/C=C/C=C/C(=O)N1CC2(CC(c3cccc(NC(=O)/C=C/C)c3)=NO2)C[C@@H]1C(N)=O (some centres undefined) | . | 93 | . | . | . | i | 0.87
Cc1nc2ccccc2c(=O)n1/N=C/c1ccc([N+](=O)[O-])o1 | . | 106 | . | . | . | i | 0.83
CSc1nc(-c2ccccc2)nn1S(=O)(=O)c1ccc(Cl)cc1 | -1.9 | 86 | 25 | 114 | -3 | i | 0.97
Cc1[nH]c2ccccc2c1/C=N/NC(=O)CNC(=O)c1ccccc1 | . | 99 | . | . | . | i | 1
CCCCN1C(N)=NC[C@H]1Cc1ccc(O)cc1 | . | 100 | . | . | . | i | 0.87
COc1ccc(NC(=O)/C=C/c2ccc(F)cc2)cn1 | -1.0 | 104 | -7 | 173 | -7 | i | 0.96
COc1cc(C(=O)Nc2cccc(-c3nc4cc(C)ccc4o3)c2C)cc(OC)c1OC | -0.5 | 93 | . | . | 8 | i | 0.92
O=C(CSc1nnc(Nc2ccccc2F)s1)NCc1ccco1 | -1.7 | 92 | -20 | 114 | -37 | i | 1
Cc1cccc(C(=O)c2ccccc2C(=O)O)c1 | . | 76 | . | . | . | i | 1.1
O=c1ccc(-c2n[nH]c(=S)n2-c2ccc(F)c(Cl)c2)n[nH]1 | . | 104 | . | . | -2 | i | 0.94
Cc1cc(C)c(S(=O)(=O)NCCCN2CCOCC2)cc1Br | -0.9 | 103 | . | . | 4 | i | 0.69
Cc1cc(C(=O)N2CC(C)CC(C)C2)n(-c2ccccc2)n1 (centres undefined) | -0.6 | 104 | . | . | -5 | i | 0.94
CCc1ccc(CCC(=O)Nc2sc3c(c2C#N)CCCC3)o1 | 0.2 | 97 | -16 | 107 | 4 | i | 0.62
CCn1c(NC)cc(=O)n(C)c1=O | -0.1 | 82 | -3 | 194 | -1 | i | 0.97
Cc1cc(NS(=O)(=O)c2ccc3c(c2)OCCO3)no1 | . | 108 | . | . | . | i | 0.97
O=C(CSc1nnc(NC(=O)Cc2ccccc2)s1)NCc1ccco1 | . | 101 | 5 | 101 | 10 | i | 1.1
Cc1ccc(C(=O)CSc2nc(-c3ccccc3)cc(=O)[nH]2)cc1 | . | 97 | . | . | 4 | i | 1
COC(=O)c1ccc(Sc2ccccc2NS(=O)(=O)c2ccc(C)cc2)nc1 | -1.9 | 98 | -19 | 63 | -7 | i | 0.9
CCCCNC(=O)CNC(=O)c1cccs1 | -3.0 | 101 | -43 | 40 | 0 | i | 1.1
Cc1ccc(NC(=S)N(CCCN2CCOCC2)Cc2ccco2)cc1Cl | -0.8 | 120 | 20 | 110 | 7 | i | 1
COc1ccc2nc(N3C(=O)CNC3=S)sc2c1 | . | 110 | . | . | . | i | 0.96
CC1=CC(C)(C)n2c(O)c(N=NC(N)=S)c3c(C)c(C)cc1c32 | . | 92 | . | . | . | i | 0.82
Cc1onc(-c2c(F)cccc2Cl)c1-c1nnc(-c2ccc(C(F)(F)F)cc2)o1 | . | 74 | . | . | . | i | 0.84
O=S(=O)(NCCSCc1ccc(Cl)cc1Cl)c1ccc2c(c1)OCCO2 | -0.4 | 105 | -33 | 71 | -9 | i | 1
Cc1ccc2[nH]c(=O)c(CN(Cc3cccs3)S(=O)(=O)c3ccc4c(c3)OCCO4)cc2c1 | -0.3 | 92 | . | . | -5 | i | 0.85
Cc1ccc(NC(=O)N2CCCC2C(=O)Nc2ccc(-n3cnnn3)c(C)c2)cc1 (centres undefined) | -2.2 | 103 | 26 | 107 | -7 | i | 1.2
Cn1c2ccccc2c2c(C(=O)N3CCN(c4ccccc4)CC3)cn(C3CCCC3)c(=O)c21 | 0.8 | 97 | -24 | 60 | -1 | i | 0.95

# Look-ups from the results shown.
# HSV augment primary fold with CC(=O)N1CCc2cc(S(=O)(=O)N3CCc4ccccc4C3)ccc21 → 1
# GALR2 ag with CCCS(=O)(=O)N1CCC(C(=O)N2CCN(Cc3ccccc3)CC2)CC1 → -0.8
# HSV augment primary fold with CCOC(=O)c1c(NC(=O)N/N=C/c2ccccc2OCC)sc(C(C)=O)c1C → 0.98
# RGS16-Gao with O=c1ccc(-c2n[nH]c(=S)n2-c2ccc(F)c(Cl)c2)n[nH]1 → 104
# GALR2 ag with Cc1cc(C)c(S(=O)(=O)NCCCN2CCOCC2)cc1Br → -0.9
# HSV augment primary fold with COc1ccc(NC(=O)C(=O)NCCCn2ccnc2)cc1 → 1

# Further compounds follow:
Molecule | GALR2 ag | RGS16-Gao | INS promoter inh | INS promoter inh cell count | PKD1 inh | HSV augment | HSV augment primary fold
CCCCN(C)CCNC(=O)Cn1ncc2c(=O)oc3ccc(C)cc3c21 | -1.5 | 101 | . | . | 13 | i | 1.3
O=C(Nc1cccc(F)c1)C1CC(=O)N(c2ccc(Br)cc2)C1 (centres undefined) | -2.4 | 259 | 21 | 88 | -1 | i | 1
Cn1cc(CN2CCCC(C(=O)c3ccc(-c4ccccc4)cc3)C2)cn1 (centres undefined) | . | 94 | 33 | 72 | -1 | i | 0.69
O=C(CNC(=O)C1CCCCC1)OCC(=O)c1ccc(Cl)s1 | . | 108 | -83 | 26 | -6 | i | 1.1
CCC(=O)n1nc(-c2ccco2)nc1N | -0.2 | 103 | -57 | 160 | -5 | i | 1
COC(=O)c1cc2ccsc2n1CC(=O)Nc1cc(Cl)ccc1OC | 0.0 | 97 | 0 | 119 | -15 | i | 0.63
Clc1cccc(-c2nnc(-c3ccno3)o2)c1 | . | 98 | . | . | . | i | 0.96
Cc1ccccc1S(=O)(=O)c1c(C)cc(-c2ccccc2)[nH]c1=O | -2.7 | 101 | 16 | 123 | 4 | i | 1
O=C(CN1CCN(C2CCCCC2)CC1)Nc1ccc(Br)cc1 | . | 109 | -43 | 69 | -4 | i | 0.85
O=C(O)c1ccc(N/N=C/c2ccc(OC(=O)c3ccccc3Cl)cc2)cc1 | -0.9 | 112 | 39 | 105 | 1 | i | 1
O=C(c1ccc(SCc2cccc(Br)c2)c([N+](=O)[O-])c1)N1CCN(c2ccccn2)CC1 | . | 106 | -92 | 137 | 1 | i | 0.93

# High-throughput results: PubChem, several laboratories
